Source: PubChem BioAssay
PrP 5UTR inh = inhibition of PrP 5' UTR reporter expression; cell-based PrP 5' UTR mRNA reporter, plate reader; inhibition, % (concentration not given with the values); 340,000 tested, 0.35% active; AID 488862, 2010;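 active = every replicate at 50% or more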;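 also: 0 = median of the neutral control wells; tested in H4 reporter cells; numbers are from one replicate; inactives centre near -14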
Autofluor counter = counter-screen for toxin protease inhibitors: compound fluorescence; compound autofluorescence counterscreen, microsphere flow cytometry; hits give high values; fluorescence intensity (test concentration not listed); 360,000 tested, 3.1% active; AID 624483;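 active = at least 3 SD above the mean of all compounds, about 16000 in these data; inconclusive = too few beads counted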;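 also: 100 nL of 1 mM stock went into each well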
Mtb hypoxia rep = PubChem AID 1159583; M. tuberculosis hypoxia-regulated fluorescent reporter, fluorescence; fluorescence inhibition, % (concentration not given with the values); 300,000 tested, 0.1% active;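 active = 35 to 45% if threefold the growth effect, above 45% if 1.5-fold the growth effect; inactive = the rest, general growth blockers included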;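 also: wells of about 50 µL received 100 nL stock; 0% = vehicle wells and 100% = reference inhibitor wells; whole bacteria with a GFP reporter of the hypoxia response; strong numbers were not always called active; many hits fall short of the cut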
Sa RN4220 lethal = growth inhibition of S. aureus RN4220, primary screen, OD600; 16 h; inhibition, % (test concentration not listed); 330,000 tested, 0.33% active;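 active = z-score of -3 or lower and OD600 up to 0.18 on both plates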;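 also: plate controls were untreated cells for no effect and reference antibiotic for full effect; stock transfer was 100 nL into about 80 µL; one replicate is shown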
Sa ugtP lethal = growth inhibition of ugtP-null S. aureus, primary screen, RN4220 ugtP deletion, OD600 | 16 h; some inactives read as strong as hits | growth inhibition, % (test concentration not listed) | 330,000 tested, 0.54% active;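 active = z-score under -3 and OD600 up to 0.15 on both plates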;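 also: plate controls were untreated wells for no effect and antibiotic for full effect; wells of about 80 µL received 100 nL stock; the first replicate is given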
BJeLR lethal = MLPCN primary cell-based screen for lethality selective to Ras in HRASV12 cells; BJeLR (HRASV12) viability, CellTiter-Glo ATP luminescence, 48 h; reference of the scale not given here; inhibition, % (test concentration not listed); 300,000 tested, 0.17% active; AID 1554, 2009;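 active = replicate mean above 50%; inconclusive = above 50% but judged a plate artefact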;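 also: 50 nL library stock added to about 25 µL; numbers are from one replicate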
Mtb hypoxia rep growth = also measured in Mtb hypoxia rep; calls as there; growth inhibition, %; measured here: M. tuberculosis growth (absorbance);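 0% = vehicle and 100% = reference antibiotic; read after six days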
* marks the source's active call; other numbers are inactive results; ? = inconclusive; . = not tested or not shown; & = joins results of further samples.

Values run as follows: Sa ugtP lethal, Mtb hypoxia rep, BJeLR lethal, Sa RN4220 lethal, PrP 5UTR inh, Mtb hypoxia rep growth, Autofluor counter
Cc1ccc(C(C(=O)NC2CCCCC2)N(C(=O)c2csnn2)C2CCCC2)o1 (stereo not given)
→ -7, 5, 1, 8.4, -18, 5, 22165*
CC(OC(=O)CNC(=O)c1ccccc1)C(=O)Nc1ccc(S(=O)(=O)N2CCOCC2)cc1 (stereo not given)
→ -4, -10, ., 0.1, -27, -6, 3689
COCc1ccc(CN2CCC(n3nccc3NC(=O)CCCc3ccccc3)CC2)o1
→ 6, 7, 4, 1.8, -20, 5, 6021
O=C(NN=Cc1ccc(Cl)cc1Cl)c1cccc(N2CCCC2=O)c1
→ -3, 13, ., -1.3, ., 5, .
Cc1cccc(C(=O)N=c2c(C#N)cc3c(=O)n4cccc(C)c4nc3n2Cc2ccco2)c1
→ -9, -5, -9, 0.2, -5&-20, 6, 3674&6561
CC(=O)c1ccccc1C(=O)N1CCCC(C(=O)c2ccc(C(F)(F)F)cc2)C1 (stereo not given)
→ 1, -15, 8, 1.4, -9, 1, 5636
COC(=O)C1=C(c2ccc3ccccc3c2)C[C@@H]2CC[C@H]1N2C(=O)N1CCCC1
→ 5, 1, ., 0.9, -10, 6, 2696
O=C(COC(=O)/C=C/c1ccc([N+](=O)[O-])cc1)NCC1CCCO1 (stereo not given)
→ 25, 1, 5, 11, -32, -4, 3171
N#Cc1c(N)n[nH]c1Cc1cccc2ccccc12
→ -7, -1, 13, -2.2, -3, 8, 3670
O=P(Nc1cccnc1)(Oc1ccccc1Cl)Oc1ccccc1Cl
→ -30, -5, 1, 8.5, -20, -2, 7876
COc1cc(C(=O)NCCC(=O)NCCN2CCOCC2)cc(OC)c1OC
→ 16, 4, -7, 2.6, -18, -1, 7944
CCCCOC(=O)/C=C\C(=O)NC(N)=O
→ -6, 4, -7, 8.2, -11, 2, 3574
O=C(COC(=O)Cc1n[nH]c(=O)c2ccccc12)Nc1ncc(Cl)cc1Cl
→ -6, -8, ., 0.2, 1, 3, 3482
COc1ccc(-n2nc(C(=O)NCC(=O)N3CCCCC3)c3ccccc3c2=O)cc1
→ 19, 3, 0, 1.9, -21, 4, 3556
CCC(=O)Nc1cc2c(C)cc(=O)oc2cc1C
→ 1, ., -15, 2.3, -3, ., 4482
O=C(NCc1ccco1)C(C(=O)c1ccc(F)cc1)n1ccccc1=O (stereo not given)
→ 7, 20, 6, 2.8, -6, 8, 9629
O=C1C2C3C=CC(C3)C2C(=O)N1c1ccncc1 (stereo not given)
→ -5, -1, -3, -18, -1, 4, 2808
CCN(CC)C(=O)CSc1nnc(CCN)o1
→ 11, 4, ., 0.8, -13, 5, 23987*
COc1ccc(-c2c(-c3ccc(C#N)cc3)oc(=O)c3cc(OC)c(OC)cc23)cc1
→ 3, -9, ., 5.0, 0, 8, 4141
COc1ccc(N2CCN(CC(=O)NC(=O)NCc3ccco3)CC2)cc1
→ 4, 15, 5, 5.2, -9, 4, 2182
C[C@]12CCC3C(CC[C@H]4C[C@H](O)CC[C@]34C)C1[C@@H](O)C[C@@H]2O (stereo not given in full)
→ 9, 10, ., 2.2, -8, 14, 3965
COc1cc(OC)cc(C(=O)NNC(=O)c2ccc(-n3cncn3)c([N+](=O)[O-])c2)c1
→ 5, 2, -1, 0.2, -6, 13, 6230
Cc1cccc(NC(=O)CC23CC4CC(C2)CC(n2nnc(C)n2)(C4)C3)c1
→ -4, 1, -10, 8.9, -9, 7, 8944
Cc1c(C(=O)c2ccccc2)c2ccccn2c1CCc1ccccn1
→ -12, -6, 2, 2.2, -8, 9, 6705
CCc1nn(CCCC(=O)N(C)Cc2ccccc2)c(=O)c2cc3occc3n12
→ -3, 1, -2, 2.4, -20, 9, 5192
COC(=O)[C@H](CC(C)C)NC(=O)NCCC1=CCCCC1
→ -3, -6, -14, -3.9, -28, 4, 5329
COc1ccccc1NC(=O)C(=O)N(c1cccnc1)C(C(=O)NC(C)(C)C)c1ccccc1F (stereo not given)
→ -10, -8, -3, -1.2, 8, 12, 4325
O=C(NN=Cc1cn(-c2cccs2)nc1-c1ccccc1)c1ccccc1Cl
→ 46, -1, ., 8.7, ., 3, .
O=C(c1ccncc1)c1nccn1-c1ccccn1
→ 2, 4, -4, 2.1, -8, 1, 7899
Cc1cccc(S(=O)(=O)N2CN(CC3CCCO3)c3nc4ccccc4nc32)c1 (stereo not given)
→ 7, 8, 7, 0.2, -4, 5, 4887
N#CCCN(Cc1ccccc1)C(=O)Nc1ccc2c(c1)CCO2
→ 8, 2, -5, 2.0, -24, 7, 4331
Cc1nnc(N/N=C/c2c[nH]c3ccccc23)[nH]c1=O
→ ., ., -10, ., -4, ., 3484
CC(=O)c1sc(-c2ccc(F)cc2)cc1NS(=O)(=O)c1ccc(C)cc1
→ 2, -1, 2, 3.0, -10, -7, 5970
COc1cccc(NC(=O)c2cnc(SCC(=O)NCc3ccc4c(c3)OCO4)n(C)c2=O)c1
→ -2, 5, 15, -5.5, -17, -6, 7154
Cc1ccc(Nc2nc(CSc3nnc(-c4ccc(F)cc4)n3C)cs2)cc1
→ -1, -2, 3, 3.0, -14, 1, 2674
O=C1CC(C(=O)N2CCN(c3ccccn3)CC2)CN1Cc1ccccc1Cl (stereo not given)
→ 1, -4, 5, 1.8, -15, 6, ?
COc1ccc(-c2c(C#Cc3ccsc3)c3cc(-c4ccc(C(N)=O)cc4)ccc3n2C)cc1
→ -12, 11, ., 2.2, -13, 11, 3653
COc1ccc(CCNC(=O)c2c(C)noc2C)cc1
→ -1, 7, -3, 0.8, -12, 12, 12285
COc1ccc2[nH]c(=O)c(CN(C(=O)c3cccnc3)c3ccc(C)cc3C)cc2c1
→ 4, 3, -2, 1.3, -25, 0, 4386
Cc1ccc(NC(=O)COC(=O)CCc2ccccc2)c(Cl)c1
→ 5, 8, -3, 1.2, -30, -3, 3645
COc1ccc(/C=N/NS(=O)(=O)c2ccccc2)cc1OC
→ ., ., 2, ., -26, ., 3546
CCO[C@@H]1OC(C(=O)N2CCN(Cc3ccccc3)CC2)=C[C@H](c2coc3ccccc3c2=O)[C@H]1CCCO
→ ., ., -5, ., -3, ., 3041
CCOC(=O)C1(Cc2cccc(Cl)c2)CCCN(C(=O)c2cc(C)on2)C1 (stereo not given)
→ -1, 14, 2, 4.4, -34, 6, 4917
COc1cc2c(C(=O)N3CCN(c4cccc(Cl)c4)CC3)cn(C)c(=O)c2cc1OC
→ 5, -13, -6, 0.9, -20, -2, 3853
Cc1ccc2c(c1)C(C)CC(C)(C)N2C(=O)CN1CCN(C)CC1 (stereo not given)
→ 0, 12, -12, 1.4, -20, 4, 6482
CCOc1ccccc1NC(=O)c1ccccc1N(C)S(=O)(=O)c1ccc(C)cc1
→ 6, -7, 1, 4.1, -6, -1, 4009
CCc1ccc(NC(=O)C2CCN(S(=O)(=O)c3ccc4c(c3)NC(=O)C(C)S4)CC2)cc1 (stereo not given)
→ 0, 13, -5, -5.6, -11, 9, 6938
Cc1ccc(NC(=O)COC(=O)C2(CC(=O)NC(C)(C)C)CCCC2)cc1C
→ 5, 20, ., 4.6, -20, 15, 3447
CCc1n[nH]c2c1/C(=N/O)CCC2
→ ., ., -9, ., -21, ., 2930
O=C(COc1ccccc1Cl)Nc1ccc(N2CCCC2)cc1
→ 8, 4, 5, 2.9, -4, -2, 5066
Cc1ccc(S(=O)(=O)C(CCC(=O)c2ccc(Cl)cc2)C(N)=O)cc1 (stereo not given)
→ -6, 11, -5, 3.8, -26, 10, 21117*
CC1CCCC(NC(=O)c2ccc(F)c(S(=O)(=O)N3CCOCC3)c2)C1C (stereo not given)
→ -1, -14, -4, -2.8, -5, 7, 5918
O=C(Nc1nnc(CCc2ccccc2)s1)c1cccc(F)c1
→ 13, 5, -3, 1.4, -29, 0, 3755
COc1cccc(CN(C)C(=O)C2CCN(S(=O)(=O)c3cccs3)CC2)c1OC
→ 12, 13, ., 6.9, -9, 7, 3868
S=C(Nc1ccccc1)N1CCC(C2CCN(C(=S)Nc3ccccc3)CC2)CC1
→ 0, 14, -8, 2.6, ., 1, .
O=C(CN1C(=O)NC2(CCCC2)C1=O)Nc1ccccc1-c1ccccc1
→ 2, 8, -14, 6.6, -6, 9, 4242
COc1ccc(-c2noc(-c3ccccc3C(=O)N3CCOCC3)n2)cc1
→ -2, 2, -21, 0.7, -8, 9, 20897*
C=CCC1(CC=C)CCCN1C(=O)Cn1nnnc1CN(C)C(C)C
→ 11, -2, -2, 5.1, -22, 0, 3027
CCCCNCC(=O)Nc1ccc(NC(=O)CNCCCC)cc1
→ -7, 3, 0, -5.9, -16, 8, 5480
CCOC(=O)C1CCCN(CC(=O)N(C)c2c(N)n(Cc3ccccc3)c(=O)[nH]c2=O)C1 (stereo not given)
→ -5, -3, ., -3.2, -4, 7, ?

Next structures follow.
Values run as follows: Sa ugtP lethal, Mtb hypoxia rep, BJeLR lethal, Sa RN4220 lethal, PrP 5UTR inh, Mtb hypoxia rep growth, Autofluor counter
CCCCn1cnc2c(cnn2-c2ccc(F)cc2)c1=O
→ 10, 9, -2, 5.6, -40, 12, 3375
Cc1nnc(SCC(=O)Nc2ncc(Cl)cc2Cl)n1Cc1ccccc1
→ 0, 2, 0, 0.0, -18, 14, 2802
CCOc1ccc(-n2c(SCc3ccc(C#N)cc3)nnc2-c2cccnc2)cc1
→ 4, ., 9, -3.7, -14, ., 2259
COc1ccc(Cc2noc(CN(C)C3CC(C)(C)NC(C)(C)C3)n2)cc1OC
→ -5, -6, -12, -1.0, -9, 7, 4756
Cc1cccc(C)c1N(CC(=O)NCc1ccco1)C(=O)CNS(=O)(=O)c1ccc(F)cc1
→ -1, 14, -5, 6.2, -12, 10, 3679
N#C/C(=C\c1cccs1)C(=O)NCc1ccco1
→ 11, 18, -2, 6.2, -34, 8, 9848
O=C(Nc1ccc(S(=O)(=O)N2CCCCC2)cc1)C1CC(=O)N(c2ccccc2)C1 (stereo not given)
→ 3, 14, 9, 2.3, -36, 3, 4203
CN(C)C=Nc1ccc(Cl)c(Cl)c1
→ ., ., 2, ., 7, ., 2825
COc1c(C)cc(C(=O)C2CCCN(S(=O)(=O)c3c(C)noc3C)C2)cc1C (stereo not given)
→ 6, 5, 4, 3.4, -23, 3, 4536
CCCCNC(=S)NNC(=O)c1cc(C2CC2)nc2ccccc12
→ 3, 8, -2, 0.9, -20, 11, 5225
CCc1cccc(C)c1NC(=O)c1cccc(N(C)C)c1
→ -8, 4, 3, -15, -15, 6, 3405
CCN(CC)c1ccc(C2NCC(c3ccc([N+](=O)[O-])cc3)O2)cc1 (stereo not given)
→ 12, 3, 6, 6.5, -2, 4, 5105
O=C(c1ccc(Cl)cc1)c1c[nH]cc1-c1ccccc1
→ -6, 12, -3, 6.4, -23, 4, 8670
O=C1CN(C(=O)COC(=O)/C=C/c2ccc(F)cc2)c2ccccc2N1
→ 4, 10, ., 3.6, -11, 8, 2988
CCOC(=O)N1CCC(NC(=O)C(Cc2ccccc2)NC(=O)C2CCCCC2)CC1 (stereo not given)
→ 10, 3, -2, 3.1, 10, -4, 6569
CCN1C(=NCCCCO)N[C@@H](c2cccc(C(F)(F)F)c2)C(C(=O)OC)=C1C
→ ., ., 0, ., -17, ., 3934
O=C(COC(=O)CNS(=O)(=O)c1c(Cl)cccc1Cl)Nc1cccnc1Cl
→ 6, 3, 2, 4.7, -19, 4, 2543
CC(=O)c1c(C)[nH]c(C(=O)NCc2ccc(C)cc2)c1C
→ -2, ., 11, 3.7, -6, ., 5038
O=C(CSc1nnc(COc2ccc(Cl)cc2)o1)OC1CCCCC1
→ 0, 15, 0, 15, -25, 15, 8945
COC(=O)c1cn(-c2ccccc2)nc1-c1ccncc1
→ 5, ., -5, 1.0, -28, ., 3696
CC(C)CC1c2[nH]c3ccccc3c2CCN1C(=O)c1cnccn1 (stereo not given)
→ -1, 5, 7, 1.8, ., 2, .

One compound at a time, from the list above. Screens in order: Sa ugtP lethal | Mtb hypoxia rep | BJeLR lethal | Sa RN4220 lethal | PrP 5UTR inh | Mtb hypoxia rep growth | Autofluor counter
Cc1cccc(C)c1N(CC(=O)NCc1ccco1)C(=O)CNS(=O)(=O)c1ccc(F)cc1 reads -1 | 14 | -5 | 6.2 | -12 | 10 | 3679
Cc1nnc(SCC(=O)Nc2ncc(Cl)cc2Cl)n1Cc1ccccc1 reads 0 | 2 | 0 | 0.0 | -18 | 14 | 2802
O=C(CSc1nnc(COc2ccc(Cl)cc2)o1)OC1CCCCC1 reads 0 | 15 | 0 | 15 | -25 | 15 | 8945
